LT uptake inh: inhibitors of anthrax lethal toxin internalization; Cells, anthrax lethal toxin internalization, FRET ratio (460/530); Potency, µM (top dose mostly 40 µM), for inactives: top-dose activity change, negative = inhibition, most hits filed as inhibitors; hit rate 0.67% among 70,000; AID 912; active = well fitted falling ratio curve with the 530 nm signal flat; inconclusive = other ratio curves, or a change in one channel alone; inactive = flat curves in the ratio and both channels; the % refers to the ratio; further: on the % scale 0 is the no-effect control and ±100 the full control effect; nearly all actives have a fitted effect of over 50% in size; tested in ME-180 cells; beta-lactamase reporter
Prx2 Sm inh: Schistosoma mansoni Prx2 inhibition. S. mansoni Prx2 activity coupled to TGR/GSH (TGR is thioredoxin glutathione reductase), NADPH fluorescence loss, qHTS; some inactives read as strong as hits. Potency, µM. hit rate 0.07% among 65,000; active means full or partial inhibition curve with a strong effect at the top dose; inconclusive means weaker partial or single-point curve; inactive means no accepted curve; further: series up to 57 µM; many of its hits are not listed in these tables
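qHTS, coupled TGR/Prx2 format; 15 min compound preincubation at RT; reaction started with H2O2 (2.5 mM aliquot); kinetic NADPH fluorescence decrease, ex 365/em 450 nm.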
* marks the source's active call; other numbers are inactive results; ? = inconclusive; / = not tested or not shown; & = joins results of further samples; [ ] = another dose, or the depositor's remark. Potency means the concentration at half of the fitted maximal effect. Not all compounds are listed. The share of hits here may be higher or lower than overall.

Below each SMILES – LT uptake inh	Prx2 Sm inh
- CCOC(=O)c1ccc(N2C(=O)CC(NC3CCN(C(=O)c4ccc(F)cc4)CC3)C2=O)cc1 (centres undefined)
    -14%	>57
- CCOc1cccc2c1OC1(C)CC2NC(=O)N1c1ccc(OC)cc1 (centres undefined)
    15%	>57
- CC(=O)c1sc(NC(=O)C2COc3ccccc3O2)nc1C (centres undefined)
    3%	>57
- CC(C)CNC(=O)c1noc2c1CCCC2
    -8%	>57
- CN(C)S(=O)(=O)c1cccc(COC(=O)C2=COCCO2)c1
    -13%	>57
- Cc1cc(C)cc(NC(=O)CCn2ccnc2C)c1
    0%	>57
- COc1ccc(C2=NOC(C(=O)NCc3ccco3)C2)cc1OC (centres undefined)
    ?	>57
- O=C(c1ccco1)N1CCC2(CC1)CCN(c1ncccn1)CC2
    -7%	>57
- CCOC(=O)c1sc(=S)n(-c2cccc(OC)c2)c1N
    -18%	>57
- O=C(CNC(=O)Cn1ccc2ccccc2c1=O)NCCCN1CCN(c2cccc(Cl)c2)CC1
    -18%	>57
- COC(=O)c1c(C)[nH]c(C(=O)C(C)Sc2nnc(-c3cc(OC)c(OC)c(OC)c3)o2)c1C (centres undefined)
    -19%	>57
- Cc1n[nH]c(=O)nc1NCC1CCCO1 (centres undefined)
    -2%	>57
- O=C(Cc1ccccc1)Oc1ccccc1N1C(=O)CCC1=O
    2%	>57
- Cc1cc(N2CCC(C)CC2)n2ncc(-c3ccccc3)c2n1
    -29%	>57
- CN1C(=O)N(C)C2C1N(CN1CCCCC1)C(=O)N2CN1CCCCC1 (centres undefined)
    -2%	>57
- Cc1ccc(SCCC(=O)NCC2CCCO2)cc1 (centres undefined)
    2%	>57
- CCc1c(C)n([O-])c2c([n+]1=O)CCCCC2
    -1%	>57
- O=C1OCCC1Sc1nc2cc(Cl)ccc2s1 (centres undefined)
    ?	>57
- O=C(CSc1nnc(Cn2c(=O)sc3ccccc32)n1-c1ccccc1)NCC1CCCO1 (centres undefined)
    8%	>57
- Cc1cscn1
    -1%	/
- Nc1ccccc1C#CCCCCO
    -4%	>57
- CC(=O)OC[C@@H]1O[C@@H](O/N=C2/C[C@@H](O)[C@@H](O)[C@@H]3[C@@H]4C(=O)N([C@@H](C)c5ccccc5)C(=O)[C@H]4CC[C@H]23)[C@H](OC(C)=O)[C@H](OC(C)=O)[C@@H]1OC(C)=O
    1%[1.6 µM]	/
- Nc1nc(-c2cccnc2)nn1C(=O)COc1ccccc1
    -3%	>57
- CC(C)(C)n1nc2c(c1NC(=O)c1cccs1)CS(=O)C2 (centres undefined)
    9%	>57
- Cc1noc(NS(=O)(=O)c2ccc(N/C=C/C(=O)c3ccc4c(c3)OCO4)cc2)c1C
    8%	/
- COc1ccccc1NC(=O)Cc1cccs1
    3%	>57
- Cc1cc(C)cc(/C=C/C2OCC(O)C2Oc2ccc(C3CCCC3)cc2)c1 (centres undefined)
    -10%&-19%[8 µM]	/
- CCOC(=O)/N=C(/NC(=O)Nc1ccc(C(=O)OCC)cc1)OC
    8%	/
- O=C(O)CCC(=O)Nc1ccccc1C(=O)NC1CCCCC1
    15%	>57
- CSCCNC(=O)c1ccc(C(C)(C)C)cc1
    -2%	>57
- O=C(CS(=O)(=O)Cc1ccccc1)Nc1ncccn1
    -7%	>57
- CCCC(OC(=O)CN1C(=O)COc2ccccc21)C(=O)NC1CCCC1 (centres undefined)
    -7%	>57
- COc1cc(S(=O)(=O)N(C)C)ccc1F
    -5%	>57
- CC(=O)c1ccc(N2CCN(C(=O)c3ccc(OCc4c(C)noc4C)cc3)CC2)cc1
    -9%	>57
- CCN(CC)C(=O)CSc1nc2ccccc2c(=O)n1-c1ccccc1OC
    /	>57
- CC1CCN(C(=O)CSc2nnc(CNC(=O)c3ccco3)o2)CC1
    3%	>57
- Cc1cc(NC(=O)C2CCCCC2C(=O)O)no1 (centres undefined)
    -4%	>57
- COCCNS(=O)(=O)c1ccc(OCC(=O)OC)c(Cl)c1
    10%	>57
- O=C(CCN1C(=O)COc2ccccc21)NCc1cccs1
    -4%	>57
- CC1(C)O[C@@H]2O[C@H]([C@@H]3COC(C)(C)O3)[C@H](N)[C@H]2O1
    0%[8 µM]	>57

Reformatted as labelled records: part of the list above.
smiles: CN(C)S(=O)(=O)c1cccc(COC(=O)C2=COCCO2)c1
  LT uptake inh: -13%
  Prx2 Sm inh: >57

smiles: Cc1cc(C)cc(NC(=O)CCn2ccnc2C)c1
  LT uptake inh: 0%
  Prx2 Sm inh: >57

smiles: COc1ccc(C2=NOC(C(=O)NCc3ccco3)C2)cc1OC (centres undefined)
  LT uptake inh: ?
  Prx2 Sm inh: >57

(further entries)
Below each SMILES – LT uptake inh	Prx2 Sm inh
- COc1cccc(N(CC(=O)O)S(=O)(=O)c2ccccc2)c1
    -8%	>57
- O=C1CSC(=NC2CCCCC2)N1
    -12%	>57
- CCOC(=O)CCN1C(=O)[C@H]2[C@H]3[C@H](O)[C@H](O)C/C(=N/OCc4ccccc4)[C@@H]3CC[C@@H]2C1=O
    -12%[1.6 µM]	/
- COCC(=O)N(C)c1nnc(-c2ccccn2)s1
    -21%	>57
- COc1ccc(OC2C=CC(C#Cc3ccc(C(C)(C)C)cc3)OC2CO)cc1 (centres undefined)
    ?	/
- CN(C(=O)c1cccnc1)c1nnc(-c2ccccn2)s1
    -7%	>57
- COc1ccccc1-c1cc(C(=O)NCCN2CCOCC2)no1
    -6%	>57
- Cc1c(-c2nc(N)nc(C3CC3)c2C)nc(N)nc1C1CC1
    -2%[8 µM]	>57
- COc1ccc(NC(=O)CN2CCN(CC(=O)Nc3ccc4c(c3)OCO4)CC2)cc1
    7%	>57
- CSc1cccc(NC(=O)OC2CCCCCCCCCCC2)c1
    ?	>57
- COc1cc(NC(=O)c2cc3ccccc3o2)c(OC)cc1Cl
    ?	/
- CCOc1cccc(C(=O)N(Cc2ccc(F)cc2)C2CCS(=O)(=O)C2)c1 (centres undefined)
    -11%	>57
- COc1ccc(/C=C/C(=O)c2ccc(OC)cc2O)cc1
    -23%[8 µM]	/
- c1cc2c(cc1Nc1nc(-c3ccc4c(c3)OCO4)cs1)OCCO2
    1%	>57
- CS(=O)(=O)N(C(=O)NC(=O)NC1CCS(=O)(=O)C1)C1CCCCC1 (centres undefined)
    -1%	>57
- COc1ccc(CC(NC(C)=O)C(=O)NC2CCN(c3c4c(nc5ncnn35)CCC4)CC2)cc1 (centres undefined)
    4%	>57
- COc1ccccc1OCc1nnc(SCC(=O)NCc2ccco2)n1Cc1ccco1
    5%	>57
- COc1ccc(S(=O)(=O)N2CCN(C(=O)[C@@H]3CCC(=O)N3C3OC(=O)c4ccccc43)CC2)cc1 (some centres undefined)
    14%	>57
- O=C(Nc1ccc(N2CCCC2)cc1)c1ccc(Br)o1
    ?	/
- N#Cc1c(SCC(N)=O)nc2c(c1-c1ccc(O)cc1)CCCC2
    13%	/
- COc1ccc(CN2CCN(C(=O)CC(C)C)CC2)c2ccccc12
    2%	>57
- CCOC(=O)c1[nH]c(C)c(/C=N/O)c1C
    17%	>57
- COc1ccc(Cn2nnnc2C(c2cccs2)N2CCSCC2)cc1 (centres undefined)
    -15%	>57
- CN1C(=O)N(C)C(NC(=O)Nc2ccccc2)C1NC(=O)Nc1ccccc1 (centres undefined)
    -12%	>57
- Brc1c(CSc2nncn2-c2ccccc2)nc2sccn12
    -9%	>57
- Cc1c(C(=O)Nc2ccncc2)oc2ccccc12
    5%	>57
- CCC(C)NC(=O)C(NS(=O)(=O)c1cccc2nsnc12)c1ccccc1 (centres undefined)
    -9%	>57
- CC(CN1CCCC1)OC(=O)COc1ccccc1 (centres undefined)
    3%	>57
- CC(C)CC(=O)Nc1ccc(-c2cn3ccsc3n2)cc1
    -7%	>57
- c1ccc2nc(-c3nc4ccccc4[nH]3)ccc2c1
    2%	>57
- c1ccc(C2=Nn3c(nnc3-c3n[nH]c4c3CCC4)SC2)cc1
    0%	>57
- COC(=O)[C@H](C)NC(=O)Nc1ccc(C)c(C)c1
    ?	>57
- C=CCN1C[C@H](C)N([C@H](c2ccc(C(=O)N(CC)CC)cc2)c2cccc(O)c2)C[C@H]1C
    ?	>26
- C=C(C)c1cccc(C(C)(C)NC(=O)Nc2ncccn2)c1
    19%	>57
- Cn1c(NCCO)nc2c(c1=O)C1(CCCCC1)Cc1ccccc1-2
    ?	>57
- COc1ccc(OC)c(C2C(C(C)=O)=C(O)C(=O)N2c2ccc(O)cc2)c1 (centres undefined)
    -6%	?
- Clc1ccc(Cn2ncc3c(N4CCCCC4)ncnc32)cc1
    -17%	>57
- CCOC(=O)NC(=O)CSc1nnnn1-c1ccc(Cl)cc1
    3%	>57
- CC(C)N(C(=O)CN(C#N)c1nc(N(C)C)nc(N(C)C)n1)c1ccccc1
    7%	/
- CCc1oc(C(=O)O)cc1CN(CC)CC
    -4%	>57

Reprinted from above for reference:
Below each SMILES – LT uptake inh	Prx2 Sm inh
- CCOC(=O)c1ccc(N2C(=O)CC(NC3CCN(C(=O)c4ccc(F)cc4)CC3)C2=O)cc1 (centres undefined)
    -14%	>57
- CCOc1cccc2c1OC1(C)CC2NC(=O)N1c1ccc(OC)cc1 (centres undefined)
    15%	>57
- CC(=O)c1sc(NC(=O)C2COc3ccccc3O2)nc1C (centres undefined)
    3%	>57

Continuation.
SMILES	LT uptake inh	Prx2 Sm inh
ClC(Cl)=C(Cl)Cl	-9%&-9%	/
O=C(O)c1cc(/C=N\O)ccc1OCc1ccccc1	-12%	>57
COc1ccc(OCCC(=O)OCC(=O)NCc2ccco2)cc1	8%	>57
CCOc1cccc(NC(=O)c2ccc(S(=O)(=O)N(C)C)cc2)c1	?	>57
O=S1(=O)N=C(Nc2ccc(N3CCOCC3)cc2)c2ccccc21	-10%	>57
Oc1ccc2c3c1O[C@H]1[C@@H](O)CC[C@]4(O)[C@H](C2)N(CC2CCC2)CC[C@@]314	-3%[3.58 µM]	>57
O=C1CC(c2ccccc2)Sc2ccccc2N1 (centres undefined)	?	>57
COc1ccc(C2C(C(=O)Nc3ccccc3OC)=C(C)Nc3nnnn32)c(OC)c1 (centres undefined)	-10%	>57
O=C(CN1CCC(NC(=O)c2cccc(F)c2)CC1)NCc1ccccc1F	0%	>57
CCN(CC)S(=O)(=O)c1ccc(NC2c3ncccc3C(=O)N2Cc2ccccc2)cc1 (centres undefined)	15%	>57
Cc1c(C(N)=O)c(N)c(C(=O)c2ccccc2)n1-c1ccccc1	9%	/
CC1(c2cccs2)CC(c2cccs2)=C(C#N)C(=O)N1 (centres undefined)	-9%	>57
CC(C)C12CN3CC(C(C)C)(CN(C1)C3c1ccccc1)C2O (centres undefined)	0%	>57
O=C(OCC(=O)N1CCCCC1)c1c[nH]c(=O)[nH]c1=O	-4%	>57
COc1ccc(C(C)C)cc1S(=O)(=O)Nc1ccc(Cl)cn1	8%	>57
COc1cc(-c2nnc3sc(-c4cccnc4)nn23)cc(OC)c1OC	-11%	>57
COCCCNS(=O)(=O)c1ccc2c(c1)OCCO2	3%	/
Cn1c(SCC(=O)c2ccccc2)nnc1C1CC1	18%	>57
Cc1nc2ccc(S(=O)(=O)Nc3ccccc3C)cc2s1	-9%	>57
COc1ccccc1N1CCN(C(=O)CSc2nc(-c3ccccc3)cc(=O)[nH]2)CC1	?	>57
COc1cccc(Cn2nnc(C(=O)Nc3cc(C)ccc3OC)c2N)c1	-7%	>57
O=C(Oc1cccc(N2C(=O)CCC2=O)c1)C1CC(=O)N(c2ccc(F)cc2)C1 (centres undefined)	9%	>57
O=C(c1cc(Cl)ccc1Cl)N1CCN(c2ccccn2)CC1	1%	>57
O=C(Nc1cccnc1)c1cn(-c2ccccc2)nc1-c1cccs1	-24%	>57
Cc1ccc(N2C(=O)c3ccc(N)cc3C2=O)cc1	?	>57
CC(=O)Nc1ccc(C2(O)COc3ccccc3O2)cc1 (centres undefined)	-24%	>57
COc1ccccc1N1CCN(c2ncnc3nc[nH]c23)CC1	?	>57
NC(=O)C1(N2CCCCC2)CCN(CC(=O)Nc2cc(Cl)ccc2Cl)CC1	-7%	>57
O=C(CN1C2=NCCN2c2ccccc21)C12CC3CC(CC(C3)C1)C2	-3%	?
CCN1CCc2nc(NC(=O)Cc3ccc4c(c3)OCCO4)sc2C1	-4%	>57
O=C(NC(Cc1ccccc1)C(=O)O)c1ccc(S(=O)(=O)N2CCCC2)cc1 (centres undefined)	-3%	>57
Cc1cc(C)n(CC(O)COc2cccc(OCC(O)Cn3nc(C)cc3C)c2)n1 (centres undefined)	-24%	>57
COc1cccc(C2CC(C(F)(F)F)n3ncc(C(=O)O)c3N2)c1 (centres undefined)	?	>57
Cc1ccc(C(c2sc3ncnn3c2O)N2CC(C)CC(C)C2)cc1 (centres undefined)	4%	>57
Cn1nnnc1SCc1cc(=O)n2ccsc2n1	-2%	>57

Source: PubChem BioAssay (National Center for Advancing Translational Sciences (NCATS))
